Screens deposited in PubChem by several laboratories.
Vif TR-FRET = inhibitors of Vif binding to APOBEC3G peptide, primary screen, biochemical, TR-FRET, GST-Vif 1-94, biotin-A3G peptide, dose response retest (AID 1117319) | 260,000 tested, 0.57% active | TR-FRET GST-Vif / biotin-A3G peptide binding; higher % means a stronger effect; test concentration not given here; strong numbers were not always called active | inhibition, %, or IC50 in µM where a hit was titrated;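 active = above the screen mean plus three standard deviations and confirmed in dose response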;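 note: Vif residues 1-94 fused to GST binding biotinylated APOBEC3G peptide 110-148; 0% = full assay without inhibitor and 100% = GST in place of GST-Vif; retest series ran down from 100 µM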
HNF4A DNA FP = change in binding of human HNF4 alpha to DNA; HNF4a-FITC DNA binding, fluorescence polarization, 1 h; AID 1224865; P41235; activity change, % at 10 µM; 360,000 tested, 0.3% active; in the data active = activity change above about 30%, passing the limit was not always enough;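 note: controls were the assay level and a saturating level of protein; the project sought stronger binding though the title names inhibitors; some compounds called inactive have numbers as strong as hits; positive values seem to mean higher polarization but the record does not say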
Target sequence (P41235 whole entry, looked up): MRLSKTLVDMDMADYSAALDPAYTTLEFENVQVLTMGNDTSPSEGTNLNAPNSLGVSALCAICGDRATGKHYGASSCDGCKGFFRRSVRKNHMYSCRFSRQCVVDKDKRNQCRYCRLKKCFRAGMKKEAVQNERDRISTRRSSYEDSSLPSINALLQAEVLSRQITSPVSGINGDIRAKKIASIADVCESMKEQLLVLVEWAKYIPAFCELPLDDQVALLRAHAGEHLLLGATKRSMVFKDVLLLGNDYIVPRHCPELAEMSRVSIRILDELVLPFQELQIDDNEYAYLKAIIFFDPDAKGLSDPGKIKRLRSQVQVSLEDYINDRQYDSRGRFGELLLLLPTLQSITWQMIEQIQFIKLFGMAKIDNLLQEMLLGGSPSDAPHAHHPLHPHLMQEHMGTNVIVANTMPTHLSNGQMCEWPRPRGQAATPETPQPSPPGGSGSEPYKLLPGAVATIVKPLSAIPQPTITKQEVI
Starred values were filed as active, the others as inactive; x = not tested or not shown. An excerpt; the hit share may differ from the screen's.

SMILES	Vif TR-FRET	HNF4A DNA FP
Cc1cc(C(F)(F)F)n(-c2nc(C(=O)Nc3ccccc3Oc3ccccc3)cs2)n1	29%	x
Cc1nc(NC2=NC(C(=O)Nc3ccc(Cl)cc3)CC(=O)N2)nc2ccccc12 (stereo unspecified)	8%	x
COc1ccc(OC)c(NC(=O)C2CC(=O)N(CCc3ccc(F)cc3)C2)c1 (stereo unspecified)	x	-2.3
Cc1ccc(Nc2nc(N)nc(N)c2N=O)cc1C	x	-2.8
CC1CCN(S(=O)(=O)c2ccc(Cl)s2)CC1	x	3.8
COc1ccc(C(=O)/C=C/Nc2ccc(S(=O)(=O)Nc3cccc(C(C)=O)c3)cc2)cc1	x	-1.3
COC(=O)c1cc(=O)nc(NN=Cc2ccc(OC)cc2)s1	x	-1.0
CC(C)=NNc1cnnc2ccc([N+](=O)[O-])cc12	x	-2.2
CCCOc1ccc(F)cc1-c1cc(C(=O)Nc2ccc(OC)nc2)[nH]n1	x	5.8
Cn1cc(-c2coc3c(C(=O)NCc4ccco4)cccc23)cn1	x	-2.3
Cc1ccc(NC(=O)CC2Nc3ccccc3NC2=O)cc1Cl (stereo unspecified)	x	0.7
CC1C(=O)N(Cc2cn(CC3CCCCC3)nn2)CCS(=O)(=O)N1Cc1ccc(-c2ccc(Cl)cc2)cc1 (stereo unspecified)	x	0.7
CCCC(=O)N1CCC1(C)C(=O)Nc1ccc2scnc2c1 (stereo unspecified)	x	3.5
COc1ccc(CCNC(=O)c2cc3cc(Cl)ccc3nc2N)cc1OC	x	-3.0
CCCC(=O)N1CCC1(C)C(=O)Nc1scc(C)c1C#N (stereo unspecified)	x	-60
NC(=O)CC(NC(=O)Cc1ccc(Br)cc1)c1ccc(NCCc2ccc(Cl)cc2)c([N+](=O)[O-])c1 (stereo unspecified)	x	18
O=C(c1ccccc1)c1nn(-c2ccccc2)c(=O)cc1-c1ccccc1	x	-0.9
Cc1ccc(C(=O)COC(=O)C2CCC2)cc1	x	0.2
CC(C)C(=O)N1CCCC1(C)C(=O)Nc1ccc2c(c1)OCO2 (stereo unspecified)	x	0.7
CCCCNC(=O)CCCCC(=O)N/N=C/c1ccccc1Cl	x	-3.1

Six entries picked at random from the list so far:
SMILES	Vif TR-FRET	HNF4A DNA FP
CC(C)C(=O)N1CCCC1(C)C(=O)Nc1ccc2c(c1)OCO2 (stereo unspecified)	x	0.7
CCCC(=O)N1CCC1(C)C(=O)Nc1scc(C)c1C#N (stereo unspecified)	x	-60
COc1ccc(CCNC(=O)c2cc3cc(Cl)ccc3nc2N)cc1OC	x	-3.0
CCCCNC(=O)CCCCC(=O)N/N=C/c1ccccc1Cl	x	-3.1
Cc1ccc(C(=O)COC(=O)C2CCC2)cc1	x	0.2
CC1C(=O)N(Cc2cn(CC3CCCCC3)nn2)CCS(=O)(=O)N1Cc1ccc(-c2ccc(Cl)cc2)cc1 (stereo unspecified)	x	0.7

New compounds follow
SMILES	Vif TR-FRET	HNF4A DNA FP
COc1ccc(S(=O)(=O)N2CCCCC2)cc1NC(=O)c1[nH]c(C)c(C(C)=O)c1C	x	2.4
COc1cc(C(=O)NC2CCN(C)CC2)ccc1Nc1ncc2c(n1)N(C1CCCC1)CCC(=O)N2C(C)C	x	-2.0
Cc1cc(C(F)F)n2nc(C(=O)Nc3sc4c(c3C(N)=O)CCC4)nc2n1	x	-2.6
COCCN1C=C2C(=O)C(C)(OC(=O)CCC(=O)OC)C(=O)C(Br)=C2C=C1c1ccc(OC)cc1 (stereo unspecified)	x	-9.2
O=C(NCc1ccccc1)c1cccc2c(-c3ccc(F)c(F)c3)coc12	x	-0.3
C=CCNC(=S)N/N=C/c1ccc(C)c([N+](=O)[O-])c1	x	-0.5
COc1ccc(C(=O)NCC(=O)N/N=C/C(C)=C/c2ccccc2)cc1OC	x	-3.8
Cn1cc(-c2coc3c(C(=O)NCc4cccs4)cccc23)cn1	x	-0.6
CCOc1ccc(N=CC2=C(O)CC(c3ccco3)CC2=O)cc1 (stereo unspecified)	x	-1.9
CCCN1C(=O)/C(=N\OCC(=O)NC23CC4CC(CC(C4)C2)C3)c2ccccc21	x	0.7
COc1ccc(CCNC(=O)c2cc3ccc(Cl)cc3nc2N)cc1	x	3.8
COc1ccccc1CNc1nc(Nc2ccccc2OC)c2sccc2n1	x	2.1
Cc1cc(C(=O)N/N=C/c2cc(N=Nc3ccccc3)ccc2O)n[nH]1	x	35
CN1/C(=C\C=N\NC(=O)c2ccccc2Br)C(C)(C)c2ccccc21	x	4.2
Cc1ccc(NC(=O)COc2ncnc3c(Cl)cc(Cl)cc23)cc1[N+](=O)[O-]	x	-1.8
O=C1[C@H]2[C@@H](c3ccc(Cl)cc3)N3C(=O)N(c4cccc(Cl)c4)C(=O)[C@@]3(Cc3ccccc3)[C@H]2C(=O)N1C1CCCCC1	x	3.0
Nc1nc2cc3c(cc2cc1C(=O)NCc1ccc(F)cc1)OCO3	x	-5.6
Oc1ccc(/C=N/NC(=S)Nc2cccnc2)c(O)c1	x	3.6
CNc1ccccc(-c2ccc3ccccc3n2)c1=O	x	-6.7
CCC12CC1(C(=O)OC)C(=O)N1CCc3c([nH]c4ccccc34)C12 (stereo unspecified)	x	4.0

Exported with values ahead of the structure: entries from further up
Vif TR-FRET	HNF4A DNA FP	SMILES
x	2.1	COc1ccccc1CNc1nc(Nc2ccccc2OC)c2sccc2n1
x	35	Cc1cc(C(=O)N/N=C/c2cc(N=Nc3ccccc3)ccc2O)n[nH]1
x	4.2	CN1/C(=C\C=N\NC(=O)c2ccccc2Br)C(C)(C)c2ccccc21
x	-1.8	Cc1ccc(NC(=O)COc2ncnc3c(Cl)cc(Cl)cc23)cc1[N+](=O)[O-]

Next records
SMILES	Vif TR-FRET	HNF4A DNA FP
CCOc1cc(C=NNC(=O)N(c2ccccc2)c2ccccc2)ccc1O	x	0.7
O=C1CC(=O)OC(c2ccc([N+](=O)[O-])cc2)O1	x	1.8
O=C(Nc1nnc(CCS(=O)(=O)c2ccc3ccccc3c2)s1)c1cccs1	x	-1.8
CC1=CNC(=O)CC(C)(C)C1	x	4.6
C/C=C(\C)C(=O)OC1[C@H](OC(C)=O)C2(CO)C(CC1(C)C)C1=CCC3C4(C)CCC(O[C@@H]5O[C@H](C(=O)O)[C@@H](O[C@@H]6O[C@H](CO)[C@@H](O)[C@H](O)[C@H]6O)[C@H](O)[C@H]5O[C@H]5O[C@H](CO)[C@@H](O)[C@H](O)[C@H]5O)[C@](C)(CO)C4CCC3(C)[C@]1(C)C[C@H]2O (stereo partly specified)	x	2.0
CN1CCN(C(=O)c2cccc3c(-c4ccc(F)c(F)c4)coc23)CC1	x	-2.7
O=C(NCCNC(=O)c1cccnc1)c1cccnc1	x	-1.5
C/C(CC(=O)NC12CC3CC(CC(C3)C1)C2)=N\NC(=O)Cc1cccs1	x	-1.0
Cc1cc(Br)cn2c(Cc3ccsc3)c(C3CCCCC3)nc12	x	-57
CCN1C(=O)CC(C(C)C)N(C2CCCC2)c2nc(Nc3ccc(C(=O)NC4CCN(C)CC4)cc3OC)ncc21 (stereo unspecified)	x	4.3
CCCS(=O)(=O)NC(=O)C1(C)CCCN(C(=O)c2cncc(Br)c2)C1 (stereo unspecified)	x	2.2
O=C(NCc1ccccn1)C1CCCN(S(=O)(=O)c2cc(Cl)ccc2Cl)C1 (stereo unspecified)	x	-0.2
COc1ccc(C2=NO[C@H]3C[C@](C(=O)NC(C)C)(S(=O)(=O)c4ccccc4)C[C@@H]23)cc1	x	-1.0
COc1ccc(C(=O)Oc2ccc(/C=N/NC(=O)c3ccccc3OC)cc2[N+](=O)[O-])cc1	x	-3.0
O=C(N[C@H]1C/C=C\C[C@H](CC(=O)N(CCO)Cc2ccccc2)C(=O)N[C@@H](c2ccccc2)COC1=O)OCC1c2ccccc2-c2ccccc21	x	1.0
CC1(C)CC2(C)OC2C2(C1)N=NC(=Nc1ccccc1)O2 (stereo unspecified)	x	0.4
CC(=O)/C(=N\Nc1ccccc1)Oc1ccc([N+](=O)[O-])cc1	x	-3.9
Oc1oc(-c2cccc3ccccc23)nc1/C=N/c1nccs1	x	-2.4
CCOc1ccc2nc(/N=C/c3nc(-c4ccc(Br)cc4)oc3O)sc2c1	x	14
CC1(C)N=C(N)NC(=NCCCOc2ccc([N+](=O)[O-])cc2)N1	x	2.2

Entries of single compounds, quoted from the list. Order of screens: Vif TR-FRET | HNF4A DNA FP
CCCS(=O)(=O)NC(=O)C1(C)CCCN(C(=O)c2cncc(Br)c2)C1 (stereo unspecified) across the screens: x | 2.2
O=C(NCc1ccccn1)C1CCCN(S(=O)(=O)c2cc(Cl)ccc2Cl)C1 (stereo unspecified) across the screens: x | -0.2
COc1ccc(C2=NO[C@H]3C[C@](C(=O)NC(C)C)(S(=O)(=O)c4ccccc4)C[C@@H]23)cc1 across the screens: x | -1.0
CC(=O)/C(=N\Nc1ccccc1)Oc1ccc([N+](=O)[O-])cc1 across the screens: x | -3.9

Additional compounds follow.
SMILES	Vif TR-FRET	HNF4A DNA FP
O=c1c(Cl)c(N/N=C/c2ccc(Cl)cc2)cnn1-c1ccccc1	x	39*
CCCS(=O)(=O)NC(=O)C1(C)CCN(C(=O)c2ccc(OC)c(F)c2)C1 (stereo unspecified)	x	-0.2
Cc1[nH]nc(SCC(=O)NCc2ccccc2)c1[N+](=O)[O-]	x	1.1
COc1ccc(N=c2cc(-c3ccc(OC)cc3)oc3ccccc23)cc1	x	-0.2
C=Cc1ccc(CC2(C)C(=O)Nc3c(Cl)cccc32)cc1 (stereo unspecified)	x	1.0
O=C(Cn1nnc(-c2ccccc2Cl)n1)N/N=C/c1ccc(-c2cccc(Cl)c2)o1	x	-0.6
Cc1ccc(NC(=O)COC(=O)c2cc(Cl)ccc2Cl)c(Br)c1	x	-2.4
CCCOc1ccc(F)cc1-c1cc(C(=O)NCc2cc(C(F)(F)F)cc(C(F)(F)F)c2)[nH]n1	x	-1.4
O=C(N/N=C/c1ccsc1)c1cc(-c2ccncc2)nc2ccccc12	x	5.1
Cc1cc(=O)oc2c(N)nccc12	x	-1.7
CCOC(=O)N/N=C(\C)c1ccccc1OC(F)F	x	-0.9
O=c1cc(-c2ccccc2)oc2c1CCCC2	x	1.5
O=C(Cc1ccccc1)N/N=C/c1cccn1-c1ccc([N+](=O)[O-])cc1	x	0.3
Nc1nc2ccccc2cc1C(=O)NCCCCc1ccccc1	x	2.1
CCN(CC)C(=O)C(=O)N/N=C/c1ccc(C(=O)O)cc1	x	1.9
F[B-](F)(F)c1cc2cc(Br)ccc2s1	x	4.0
CCOC(=O)c1c2c(n(-c3ccc(OC)cc3)c1C)C(=O)C(=O)c1ccccc1-2	x	2.9
O=C(/C=C/c1ccccc1[N+](=O)[O-])Nc1cccc(S(=O)(=O)NC2=NCCCCC2)c1	x	0.5
CCCS(=O)(=O)NC(=O)C1(C)CCN(C(=O)/C=C/c2ccccc2)C1 (stereo unspecified)	x	-1.8
Fc1ccc(N/N=C/C=C/c2ccccc2)c(F)c1	x	-0.2
CCC1Nc2ncnc(N3CCc4ccccc4C3)c2N(Cc2ccc(Br)cc2)C1=O (stereo unspecified)	x	-1.3
Cn1c(N/N=C/c2cc3ccccc3nc2Cl)nc2ccccc21	x	60*
Cc1sc2ncnc(N=Nc3c(O)[nH]c4ccccc34)c2c1C	x	2.1
COc1ccc(CCN2C(=O)CCC3=C2CCCC3=O)cc1OC	x	1.6
CC1(OC(=O)c2cccs2)C(=O)C=C2C=C3CCCN3C=C2C1=O (stereo unspecified)	x	-31
CCN1C[C@@H]2[C@@H]3C(=O)N(Cc4ccccc4)C(=O)[C@@H]3[C@](CC)(C1=O)N2C(=O)c1ccc(Cl)c(Cl)c1	x	-4.7
Clc1ccc2nc(-c3ccccc3)c(Cc3ccsc3)n2c1	x	-4.2
